TRPML1 ag = qHTS for Agonists of the Human Mucolipin Transient Receptor Potential 1 (TRPML1); Mucolipin-1 (Homo sapiens), Q9GZU1; TRPML1-expressing cells, Ca2+ dye fluorescence, FDSS; host cell line not named in the record; reference of the full effect not given here; activation, % (no concentration beside the values); 0.12% of 410,000 active; in the data active = activation above about 50%; inconclusive = about 30% to 50%; inactive = below about 30%; also: 0% is about no effect; the text of the record puts the active cut at 80%
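Kinetic FDSS Ca2+ read in Tet-induced TRPML1-DL cells (ABD Ca8 dye plus quencher, 45-90 min RT loading): baseline, then compound, then 110 s agonist window; EC80 agonist 54-4 at 4uM final added afterwards for a 110 s antagonist window.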
D2 PAM = Beta-Arrestin HTS for Positive Allosteric Modulators of the Human D2 Dopamine Receptor: Potentiators | potentiation, % (concentration not given with the values) | 0.23% of 360,000 active | D(2) dopamine receptor (Homo sapiens), P14416 | DiscoveRx D2 beta-arrestin cells, luminescence, 90 min; 100% = 57 uM dopamine signal; active = potentiation of 50% or more; inconclusive = 30% to 50%; inactive = 30% or less;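 also: compound concentration not given in the record; tested on top of an EC20 dose of dopamine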
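D2 cells co-treated with compound plus 50 nM dopamine (EC20) for 90 min at 37 deg C to detect potentiation. Beta-arrestin recruitment was read as enzyme-fragment luminescence after 1 h at ambient temperature. Full response was set by 57 uM dopamine.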
D2 ag = Beta-Arrestin HTS for Positive Allosteric Modulators of the Human D2 Dopamine Receptor: Agonists. D(2) dopamine receptor (Homo sapiens), P14416. DiscoveRx PathHunter D2 beta-arrestin, luminescence, 90 min; 100% = 57 uM dopamine signal. activation, % (no concentration beside the values). 0.084% of 360,000 active. AID 624465, 2012; in the data active = activation above about 40%; inconclusive = about 15% to 40%; inactive = below about 15%; also: compound concentration not given in the record; the text of the record calls up to 30% inactive
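DiscoveRx PathHunter D2 beta-arrestin cells (2,100/well) attached overnight, then compound-stimulated 90 min at 37 C in HBSS/10 mM HEPES/0.1% Tween-20 buffer; beta-galactosidase complementation read by luminescence after 1 h at ambient temperature. Dopamine 57 uM final (EC100) as control.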
Six1-Eya2 inh = qHTS Assay for Inhibitors of the Six1/Eya2 Interaction. AlphaScreen GST-Six1/His-Eya2 binding, biochemical; hits give low values; control for the full effect not named in the record. 0.56% of 360,000 active. Homeobox protein SIX1 (Homo sapiens) + Protein phosphatase EYA2 (Homo sapiens), …. activity change, % (concentration not given with the values); in the data active = activity change below about -65%; inconclusive = about -30% to -65%; inactive = above about -30%; also: % is scaled to controls: 0 for no effect and ±100 for the full control effect
Target sequence (O00167 whole entry, looked up): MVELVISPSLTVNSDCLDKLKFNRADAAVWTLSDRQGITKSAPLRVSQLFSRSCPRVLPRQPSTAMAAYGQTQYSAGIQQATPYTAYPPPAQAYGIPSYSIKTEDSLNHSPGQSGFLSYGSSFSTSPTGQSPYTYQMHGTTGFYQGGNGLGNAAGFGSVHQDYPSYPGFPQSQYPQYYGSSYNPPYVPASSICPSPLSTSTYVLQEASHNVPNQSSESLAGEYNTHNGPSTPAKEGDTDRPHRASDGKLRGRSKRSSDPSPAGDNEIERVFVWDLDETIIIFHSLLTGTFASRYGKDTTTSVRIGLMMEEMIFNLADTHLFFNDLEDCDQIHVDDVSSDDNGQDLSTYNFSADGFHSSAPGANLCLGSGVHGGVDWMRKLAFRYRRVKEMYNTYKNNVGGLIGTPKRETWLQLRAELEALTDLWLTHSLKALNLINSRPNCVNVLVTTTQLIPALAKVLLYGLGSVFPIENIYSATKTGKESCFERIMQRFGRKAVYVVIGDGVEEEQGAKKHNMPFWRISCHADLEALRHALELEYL
Target sequence (Q15475 whole entry, looked up): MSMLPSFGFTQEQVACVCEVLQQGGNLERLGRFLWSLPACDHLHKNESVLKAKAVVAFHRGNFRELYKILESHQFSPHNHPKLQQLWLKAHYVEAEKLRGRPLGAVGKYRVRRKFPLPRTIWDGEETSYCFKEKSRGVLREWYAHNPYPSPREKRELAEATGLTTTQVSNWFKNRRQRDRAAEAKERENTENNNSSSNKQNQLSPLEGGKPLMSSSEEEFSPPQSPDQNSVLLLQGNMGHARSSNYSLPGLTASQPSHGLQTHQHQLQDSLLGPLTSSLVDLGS
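AlphaScreen luminescence read after one hour at 37 °C in darkness. Pin-transferred compounds met GST-Six1 and His-Eya2 protein (5X stock 250 nM/500 nM) plus glutathione donor and Ni-chelate acceptor beads (5X, 50 ug/mL).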
CtBP-E1A inh = qHTS Assay for Inhibitors of the CtBP/E1A Interaction; AlphaScreen GST-E1A/His-CtBP binding, 1536-well; hits give low values; control for the full effect not named in the record; 0.49% of 340,000 active; activity change, % (concentration not given with the values); in the data active means activity change below about -65%; inconclusive means about -30% to -65%; inactive means above about -30%; also: % is scaled to controls: 0 for no effect and ±100 for the full control effect
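Homogeneous bead-based format: GST-tagged E1A captured on glutathione donor beads, His-tagged CtBP on nickel acceptor beads; compounds precede bead addition by 2 h at 37 °C.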
PINK1 modulator = A Quantitative High throughput Screen to Identify Chemical Modulators of PINK1 Expression; PINK1 immunofluorescence, high-content cytometry, 24 h; Potency, µM (highest dose often 76.6 µM), without a hit: top-dose activation (PINK1 increase), most hits filed as activators; 0.2% of 410,000 active; active = well fitted activation curve with a large enough effect; inconclusive = small, poorly fitted or top-dose-only effect; inactive = flat fitted curve, though single readings scatter; cell line not stated here;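 also: potency is read from the fitted curve at half-maximal effect; % of control where 0% means no effect; nearly all actives have a fitted effect of over 65% in size; a mitochondrial uncoupler was the plate control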
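Stable cell line treated 24 h with compounds at 5 concentrations (CCCP controls), then fixed and immunostained for PINK1 plus nuclear and cell stains; PINK1 immunofluorescence quantified by laser-scanning microplate cytometry.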
Active calls of the source: *; ? = inconclusive; / = not tested or not shown; [ ] = remark or other dose.

SMILES	TRPML1 ag	D2 PAM	D2 ag	Six1-Eya2 inh	CtBP-E1A inh	PINK1 modulator
CC(C)CCNC(=O)CN(Cc1cccs1)C(=O)CCC(=O)Nc1nccs1	-0.8	-6	-1.9	2	4	8.4%[38.3 µM]
COc1ccc(CCn2c(S)nc3ccccc3c2=O)cc1	0.9	-1	-8.5	1	5	-2.4%
CCCN1C2CCCC1CC(NC(=S)Nc1cc(C)ccc1C)C2 (stereo unspecified)	0.7	-19	-2.2	7	0	0.0%
CCc1ccc(N2C(=O)Nc3ccc(Br)cc3C2(O)C(=O)NCCN(C)C)cc1 (stereo unspecified)	-0.2	-12	-2.8	15	-22	0.3%
Cc1ccc(C)c(OCC(=O)NCC(C)C)c1C	-0.6	-11	-6.3	1	-16	3.2%
Cc1nn(-c2ccccc2)c(C)c1NC(=O)c1cccs1	-0.1	-14	-1.7	1	6	-1.2%
COc1ccc(OCC(=O)Nc2ccc(C)cc2)cc1	-1.4	2	1.8	-1	4	0.0%
COc1ccc(Nc2ncnc3c2cnn3Cc2ccccc2)cc1OC	0.0	0	0.5	-14	8	-1.6%[38.3 µM]
Cc1cc(C(=O)NCc2cccs2)cs1	-0.7	-13	-1.7	25	0	1.5%
CCC(C)NC(=O)C1CCN(C(=O)N(C)C)CC1 (stereo unspecified)	0.1	-3	-1.3	0	-11	1.9%[38.3 µM]
O=C(CNC(=O)[C@@H]1Cc2ccccc2CN1)NC1CCCC1	0.3	-8	-2.0	5	/	1.0%
CC(OC(=O)CCC(=O)c1ccccc1)C(=O)Nc1ccc(F)cc1 (stereo unspecified)	1.2	-10	-4.4	-3	12	-3.0%
COc1ccc(C(=O)Nc2ccc3oc(-c4cccc(F)c4)nc3c2)cc1OC	-0.2	-5	-3.1	31	-21	7.2%
CCc1ccccc1NC(=O)CN1CCN(C(=O)CCC(=O)N2CCC(c3ccccc3)=N2)CC1	1.6	-3	0.5	8	-3	-0.4%
COc1ccc(NC(=O)CC2(Cc3ccccc3)CCOC(C)(C)C2)cc1 (stereo unspecified)	2.6	-8	0.4	4	2	-0.1%
O=C(CN(Cc1ccco1)C(=O)Cn1nnc(-c2ccc(F)cc2)n1)NC1CCCC1	0.0	-4	2.9	0	-1	?
Cc1cccc(N2CC(C(=O)Nc3ccc(S(=O)(=O)NCC4CCCO4)cc3)CC2=O)c1C (stereo unspecified)	0.2	-4	-1.9	-2	-9	1.1%
COC(=O)CC1=C(C(=O)OC)C(c2ccncc2)C(C#N)=C(N)O1 (stereo unspecified)	-0.7	-4	-2.4	4	1	-0.6%
Cc1oc(C(=O)O)cc1COc1ccc2c(C)cc(=O)oc2c1	-0.3	-11	-2.9	-5	0	0.4%
COc1ccc(C2=NCCc3cc(OC)c(OC)cc32)cc1OC	0.0	-20	0.2	-7	4	5.3%
O=C(O)CC(NCc1ccco1)C(=O)Nc1cccc(O)c1 (stereo unspecified)	0.6	-1	-2.3	-3	2	6.4%
Cc1ccc(C)c2c1c1ccccc1n2C	1.8	-1	0.0	17	10	8.9%
O=C(C1CCCO1)N1CCN(C(=S)Nc2ccccc2)CC1 (stereo unspecified)	0.9	4	0.4	9	18	3.0%
CC(C)[C@H](NC(=O)c1ccccc1)C(=O)Nc1ccc2c(c1)OCO2	-0.7	-2	6.3	-1	-2	7.3%
CC=CC1OCC(CC)C(CCC)O1 (stereo unspecified)	0.3	-3	-0.7	9	1	-1.7%

(more compounds)
SMILES	TRPML1 ag	D2 PAM	D2 ag	Six1-Eya2 inh	CtBP-E1A inh	PINK1 modulator
NNC(=O)CSCc1nc(-c2ccccc2)cs1	0.1	-3	-2.2	-2	6	0.7%
Cc1ccc(Oc2c(C(N)=O)cc([N+](=O)[O-])cc2[N+](=O)[O-])cc1	0.3	24	12	6	3	-2.9%
COc1cc(C(=O)NNC(=O)c2ccc(NC(C)=O)cc2)cc(OC)c1OC	-0.6	-2	-4.5	-2	3	0.4%
CCOc1ccc(/C=C(\C#N)C(=O)NC2CC2)c(OCC)c1	1.2	-12	-1.0	6	-4	0.0%
CCN(CC)Cc1c(C(=O)N/N=C/c2c(Cl)cccc2Cl)nnn1-c1nonc1N	0.6	0	4.1	-2	0	0.7%
NNC(=O)c1[nH]c2ccc(Cl)cc2c1-c1ccccc1	0.4	25	12	-10	7	2.0%
Cc1cc(C)n2nc(C(=O)NCCc3ccccc3)nc2n1	-0.3	-3	3.4	0	4	-3.4%
Cn1ccn(CCCCCCn2ccn(C)c2=S)c1=S	-0.3	-9	-4.9	-14	-8	2.7%
COc1ccc(OC)c(N(CC(=O)Nc2ccccc2F)S(=O)(=O)c2ccccc2)c1	1.1	-4	-0.1	-23	-1	7.1%
O=c1cc(CN2CCN(c3ccccc3)CC2)c2c(ccc3ccccc32)o1	1.0	-18	0.0	-18	-12	-1.6%
COc1cccc(NC(=O)CSc2nc3c(c(-c4ccco4)c2C#N)CCCC3)c1	0.4	5	3.5	4	0	-1.6%[38.3 µM]
CCOc1ccccc1C(=O)NN1CCOCC1	-0.1	1	-0.4	9	-2	0.5%
CCOC(=O)C1CCN(S(=O)(=O)Cc2ccccc2)CC1	0.4	11	-2.6	-2	0	4.5%[38.3 µM]
O=C(Nc1cccc2cccnc12)c1cc(F)c(F)cc1Cl	2.1	-1	0.3	12	23	8.0%
CCNC(=O)C1CCCN1S(=O)(=O)c1ccc(OC)cc1 (stereo unspecified)	-0.6	0	-2.9	2	8	-5.4%
COCCCNC(=O)Cn1nc(-c2ccccc2OC)ccc1=O	1.0	-20	-1.9	22	0	6.0%
Cc1cccc(C(=O)NCCc2n[nH]c(=S)n2C)c1	0.9	-3	0.2	7	-4	-0.7%
Cc1ccc2oc(=O)c3cc(C(=O)NCc4ccco4)sc3c2c1	0.4	-4	-0.4	-2	-6	6.4%
COc1cc(/C=C/C(=O)c2ccc3c(c2)OCO3)cc(Cl)c1O	56*	-8	-6.4	-3	-2	-2.5%
CCCCc1c(-c2cccc(Cl)c2)ncn1CCc1ccccc1OC	0.2	/	/	-11	-17	-1.3%
CCOc1ccc(C(C)=O)cc1N1C(=O)C2C3C=CC(O3)C2C1=O (stereo unspecified)	0.4	-24	-0.8	2	1	11%[38.3 µM]
CC(C)(C)c1cc[n+](/C(C(=S)NC2CC2)=C(/[O-])c2ccc(Cl)s2)cc1	0.1	-6	-0.3	-1	-16	-1.7%
Cc1ccc(-n2ncc(C(=O)Nc3cc(Cl)cc(Cl)c3)c2C2CCNCC2)cc1C	0.8	-18	-4.0	1	/	-0.7%
CCNC(=O)OCc1cn(-c2ccc(Cl)cc2)nn1	0.2	-9	-5.1	8	-4	0.1%
COc1ccc(C(=O)C2CCCN(C(=O)CSC)C2)cc1OC (stereo unspecified)	0.3	-2	-2.7	1	-1	0.6%

Sorted by the number under D2 ag (low to high): some entries from above
SMILES	D2 ag
COc1cc(/C=C/C(=O)c2ccc3c(c2)OCO3)cc(Cl)c1O	-6.4
COc1cc(C(=O)NNC(=O)c2ccc(NC(C)=O)cc2)cc(OC)c1OC	-4.5
CCNC(=O)C1CCCN1S(=O)(=O)c1ccc(OC)cc1 (stereo unspecified)	-2.9
O=C(Nc1cccc2cccnc12)c1cc(F)c(F)cc1Cl	0.3

Following part
SMILES	TRPML1 ag	D2 PAM	D2 ag	Six1-Eya2 inh	CtBP-E1A inh	PINK1 modulator
CC(=O)Nc1ccc(C=NNc2ccc([N+](=O)[O-])cn2)cc1	0.6	-4	0.1	-2	2	?
Cc1cc([N+](=O)[O-])nn1CC(=O)NCc1ccccc1	-0.6	-13	-1.9	1	/	1.1%
Cc1ccc(S(=O)(=O)NC(=O)Nc2nc(-c3ccc(F)c(F)c3)cs2)cc1	-0.4	-3	0.1	-8	10	-0.7%
N#CC(CC(=O)c1ccc(Cl)cc1)c1ccccc1 (stereo unspecified)	4.1	-7	-3.9	25	-24	-2.3%
O=C(Nc1ccccc1Cl)NC1(C(=O)NCc2ccncc2)CCCCC1	0.4	-2	7.7	-9	-23	3.9%
O=C(NN1CCOCC1)c1cc(-c2ccncc2)nc2ccccc12	-0.5	-6	-1.0	5	10	0.2%
O=C(Nc1ccc2oc(=O)ccc2c1)c1cc([N+](=O)[O-])ccc1N1CCOCC1	-0.1	-10	-1.4	-3	-1	1.2%
CCOc1ccc(S(=O)(=O)c2cn(C)c3cc(OC)c(OC)cc3c2=O)cc1	0.4	-10	-1.5	-26	?	-0.3%
Cc1nc(N2CCN(c3ccc(Cl)cc3)CC2)[nH]c(=O)c1C	/	-7	-4.5	-9	/	1.3%
CCC1CCc2sc(C(=O)NCC(c3ccc(OC)cc3)N3CCCC3)cc2C1 (stereo unspecified)	-0.3	-29	-19	-9	18	-3.8%
Cc1ccccc1C(=O)NC1CCN(C(=O)N2CCOCC2)CC1	-0.4	-3	-1.0	12	-7	0.7%
COc1ccccc1NC(=O)Nc1ccnn1C1CCN(C(=O)c2ccccn2)CC1	0.6	4	0.9	-2	7	-1.0%
CC(=O)OC1CCC2(C)C(CCC3C4CC=C(C(C)=O)C4(C)OC(=O)CC32)C1 (stereo unspecified)	0.1	-33	-4.0	?	2	-1.9%
Cn1c(/C(C#N)=C(\O)c2ccc(Br)s2)nc2ccccc21	-0.4	0	-0.5	5	/	2.8%
COc1ccc(CN2C(=O)c3cccnc3C2Nc2ccc(C)cc2)cc1 (stereo unspecified)	3.2	-1	-1.2	-2	-9	-2.0%
COc1ccccc1CNS(=O)(=O)c1ccc2c(c1)NC(=O)CO2	-0.9	-9	0.2	1	-7	0.5%
COc1ccc(C2NC(=S)NC3=C2N2CCC3CC2)cc1 (stereo unspecified)	-0.2	-4	0.0	-8	-8	-0.5%
O=C(COC(=O)c1cccc(Cl)c1)NCc1ccccc1	-0.8	-7	-1.3	-4	10	1.6%
CNC(=O)N(O)C1N(/N=C/c2ccccc2O)C(=S)SC1(C)C (stereo unspecified)	0.8	-1	-5.8	-12	-11	2.6%
COc1cccc2sc(N3CCN(C(=O)C4COc5ccccc5O4)CC3)nc12 (stereo unspecified)	-0.3	-1	0.2	-29	0	0.2%
COc1cccc(NC(=O)NCc2ccccc2Cl)c1	0.1	0	4.2	7	0	2.2%
CC(OC(=O)c1ccc2c(=O)n3c(nc2c1)CCCCC3)C(N)=O (stereo unspecified)	1.4	-6	-4.9	6	-6	-0.5%

As entered above:
Six1-Eya2 inh, CC(OC(=O)CCC(=O)c1ccccc1)C(=O)Nc1ccc(F)cc1 (stereo unspecified) → -3
D2 ag, COC(=O)CC1=C(C(=O)OC)C(c2ccncc2)C(C#N)=C(N)O1 (stereo unspecified) → -2.4

Assay outcomes deposited in PubChem BioAssay by National Center for Advancing Translational Sciences (NCATS).
